Screening data as filed in PubChem.
Anaer choline gr – choline-fed anaerobic bacterial growth inhibition; Gram-negative bacterium anaerobic choline minimal medium, absorbance growth; active compounds read low; many inactives read as strong as hits in the columns shown; calls only; 0.2% of 55,000 active;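 active = growth z-score on choline under -2 at 7 or 20 h with little or no fall on glycerol, limits in tiers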;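 note: stock transfer was 300 nL into about 50 µL; the organism is E. coli; final concentration not given here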
Anaer choline gr early – second read-out of Anaer choline gr, no call of its own (marks repeat the call); z-score; measured here: choline growth z-score, timepoint 1;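 score of optical density at 7 h as mean of two plates; lower means less growth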
Starred values were filed as active, the others as inactive; i = inactive; + = active, no number; & = joins results of further samples. Some of the compounds tested, so the mix of outcomes need not match the whole.

Below each compound – Anaer choline gr early	Anaer choline gr
COC(=O)c1ccc(NC(=O)c2sc3nc(C)cc(=O)n3c2C(=O)Nc2ccc(C)cc2C)cc1
→ 0.64	i
CCCC(=O)Nc1cc(Cl)ccc1OCc1cc(=O)n2cc(C)sc2n1
→ -0.27	i
Cc1cc(=O)n2[nH]c(NCc3cc(F)cc(F)c3)nc2n1
→ -2.3	i
CCCN1C(=O)c2ccccc2Sc2cc(-c3noc(-c4ccncc4)n3)ccc21
→ 2.04	i
COc1nc2cc(C)ccc2cc1-c1noc(C)n1
→ 0.22	i
CCCNC(=O)c1nnc(-c2oc3ccccc3c2C)o1
→ -0.28	i
C=CCOc1cccc(C2Nc3ccc(Cl)cc3[C@H]3OCCC[C@@H]23)c1 (stereo partly specified)
→ 0.96	i
COc1cc(NC(=O)c2nn(C)c3c2CSc2ccc(Cl)cc2-3)cc(OC)c1
→ 0.85	i
CC1=C(C(=O)OC(C)C)C(c2cn(-c3ccccc3)nc2-c2ccc(Cl)cc2)NC(=O)N1 (stereo unspecified)
→ -0.23	i
CC[C@H]1OC(=O)[C@H](C)[C@@H](O[C@H]2C[C@@](C)(OC)[C@@H](O)[C@H](C)O2)[C@H](C)[C@@H](O[C@@H]2O[C@H](C)C[C@H](N(C)C)[C@H]2O)C(C)(O)C[C@@H](C)CN(C)[C@H](C)[C@@H](O)[C@]1(C)O (stereo partly specified)
→ -1.97&-2.61	i
CCc1cnc2c(c1SCC(=O)N1CCC(C)CC1)c(=O)n(C)c(=O)n2C
→ -1.2	i
O=S(=O)(c1ccc(Br)cc1)N1CCn2cccc2C1c1ccccc1 (stereo unspecified)
→ 0.61	i
Cc1nn(-c2nc3ccccc3o2)c2c1C(c1ccc(F)cc1F)CC(=O)N2 (stereo unspecified)
→ -1.21	i
C[C@@H]1C(=O)OC2[C@H](O)C34[C@H]5C[C@@H](C(C)(C)C)[C@]36[C@@H](OC(=O)[C@@H]6O)O[C@@]4(C(=O)O5)[C@]21O (stereo partly specified)
→ -1.23	i
CCCn1nnc2cc(S(=O)(=O)N3CCCC(C(=O)NCc4ccccc4Cl)C3)ccc21 (stereo unspecified)
→ 0.63	i

Next structures
Below each compound – Anaer choline gr early	Anaer choline gr
Cc1csc(-c2cc(S(=O)(=O)NCc3cccs3)c(C)s2)n1
→ 0.92	i
O=C(Nc1ccccc1)c1ccc(=O)n(CC(=O)N2CCN(c3ccccc3)CC2)n1
→ -0.27	i
COc1ccc(NC(=O)CN2C(=O)c3cccnc3Sc3ccccc32)cc1OC
→ -1.01	i
O=S(=O)(NCCc1nc(-c2ccc(F)cc2)n[nH]1)c1ccccc1F
→ -0.49	i
COc1cccc(OCc2nn3c(-c4ccoc4C)nnc3s2)c1
→ -0.19	i
Cc1ccccc1OCc1nnc2c3cnn(Cc4ccccc4)c3ncn12
→ 0.35	i
CC1CC(=O)Nc2ccccc2N1C(=O)c1ccccc1F (stereo unspecified)
→ -1.37	i
Cc1nc(-c2ccc(C)c(S(=O)(=O)NCC(=O)N3CCN(c4ccc(Cl)cc4)CC3)c2)no1
→ 0.74	i
Cc1ccc(-c2nc(SCc3cc(=O)n4nc(C5CC5)sc4n3)n3[nH]c(=O)cc3n2)cc1
→ -0.08	i
O=C(Cc1ccccc1)NC1CC(=O)N(c2ccccc2)C1 (stereo unspecified)
→ -0.81	i
CCOC(=O)c1[nH]c(C)c(CCC(=O)N2CCc3ccccc32)c1C
→ -0.74	i
Cc1csc(-c2cc(S(=O)(=O)NC3CC3)c(C)n2C)n1
→ -0.44	i
CC1(C(=O)NC2CCCCC2)Cn2c(cc3sccc32)C(=O)N1Cc1ccc(Cl)cc1 (stereo unspecified)
→ 1.04	i
COc1c(C)cnc(Cn2cnc3oc(C)c(C)c3c2=O)c1C
→ -1.02	i
O=C(NCc1cccn1Cc1cccc(F)c1)NCC1CCCO1 (stereo unspecified)
→ -0.57	i

Next records:
Below each compound – Anaer choline gr early	Anaer choline gr
Cc1ccc(CNC(=O)CCC(=O)N2CC=C(c3c[nH]c4ccccc34)CC2)cc1
→ -0.56	i
COc1cccc(CCNC(=O)Cn2c(=O)c(=O)n(Cc3ccc(Cl)cc3)c3ccccc32)c1
→ 0.67	i
COC(=O)C1=C(c2ccccc2)c2ccccc2S(=O)(=O)N1CC(=O)Nc1ccc(F)c(F)c1
→ 1.09	i
CCOC(=O)c1ccc(NC(=O)C2=Cc3cc(C)ccc3OC=C2)cc1
→ -0.58	i
CCC(C)NC(=O)Cn1cnc2nc(N3CCC(C(=O)NC)CC3)sc2c1=O (stereo unspecified)
→ 0.51	i
O=S(=O)(c1ccccc1)N1C[C@@H]2CN(S(=O)(=O)c3ccc4c(c3)CCC4)C[C@H](C1)O2
→ 1.03	i
CCCN1CCc2nc(SCc3c(C)cc(C)cc3C)[nH]c(=O)c2C1
→ -1.41	i
O=C(Nc1ccc2c(c1)OCO2)C1CC(=O)N(CCc2c[nH]c3ccc(F)cc23)C1 (stereo unspecified)
→ -1.49	i
Cc1ccc(N2CCN(S(=O)(=O)c3cc(-c4nnc(C5CCC5)o4)co3)CC2)cc1
→ 1.45	i
COc1ccc2[nH]cc(C(=O)c3sc(Nc4ccc(OC)c(OC)c4)nc3N)c2c1
→ 0.24	i
O=C(c1cnc2ccc(F)cc2c1Nc1ccc2c(c1)OCO2)N1CCCCC1
→ -0.21	i
COc1cc(OC)c(NC(=O)CN2CCCN(Cc3cc(C)ccc3C)S2(=O)=O)cc1Cl
→ -0.05	i
O=C(O)CSc1nnc2n(-c3ccccc3)c3ccccc3n12
→ 0.84	i
COCCn1c(COc2ccc(OC)cc2)nc2ccccc21
→ -0.2	i
CCCCS(=O)(=O)N1CCc2c(c(-c3nnc(-c4ccc(F)cc4)o3)nn2C)C1
→ 0.65	i

Some of these compounds in order of count of non-hydrogen atoms, lowest first:
Below each compound – Anaer choline gr early	Anaer choline gr
COCCn1c(COc2ccc(OC)cc2)nc2ccccc21
→ -0.2	i
O=S(=O)(c1ccccc1)N1C[C@@H]2CN(S(=O)(=O)c3ccc4c(c3)CCC4)C[C@H](C1)O2
→ 1.03	i
COC(=O)C1=C(c2ccccc2)c2ccccc2S(=O)(=O)N1CC(=O)Nc1ccc(F)c(F)c1
→ 1.09	i

Other results.
Below each compound – Anaer choline gr early	Anaer choline gr
O=C(NCCCN1CCOCC1)c1cc(-c2ccccc2)nc2n[nH]c(-c3ccccc3)c12
→ -0.38	i
OC(CN1CCN(c2ccc(F)cc2)CC1)c1ccc2c(c1)OCO2 (stereo unspecified)
→ -0.18	i
CC(=O)N1CCc2cc(N3CC(C(=O)NCc4cccs4)CC3=O)ccc21 (stereo unspecified)
→ -0.55	i
Cc1nc(N2CCC(C(=O)NCCC3=CCCCC3)CC2)c2c(C)c(C)oc2n1
→ -0.09	i
Cc1nc(-c2cc(S(=O)(=O)Nc3ccc(Br)cc3F)c(C)s2)cs1
→ 0.47	i
CC(CCc1ccccc1)NC(=O)c1ccc(-n2nc(OCc3ccc(Cl)cc3)ccc2=O)cc1 (stereo unspecified)
→ -0.39	i
Cc1c(Cl)cccc1NC1c2ccccc2C(=O)N1Cc1ccc2c(c1)OCO2 (stereo unspecified)
→ -0.3	i
O=C1COc2ccccc2N1Cc1noc(-c2ccccc2)n1
→ 0.17	i
O=S(=O)(c1ccc(-c2nnc(C3CCC3)o2)o1)N1CCCCCC1
→ 0.91	i
O=C(Cc1nnc(NC(=O)Nc2cccc(F)c2)s1)NCc1ccccc1
→ -0.16	i
CCN(CC)CCn1c(C)c(C)c2c1ncn1nc(-c3ccc(F)cc3)nc21
→ 0.51	i
COc1ccc(-n2cnc3c(C)nc(Nc4ccc(C)cc4)nc32)cc1
→ 1.1	i
CN1C(=O)CCC1c1cccnc1 (stereo unspecified)
→ 0.38	i
Fc1ccc(CNc2nc3c(-c4ccccc4)nnn3c3ccccc23)cc1
→ 2.5	i
Cc1cccc(-c2cc(N3CCC(C(=O)N4CCC(C)CC4)CC3)ncn2)c1
→ -0.76	i

Fetched by structure from above, six records:
Below each compound – Anaer choline gr early	Anaer choline gr
O=C1COc2ccccc2N1Cc1noc(-c2ccccc2)n1
→ 0.17	i
Cc1cccc(-c2cc(N3CCC(C(=O)N4CCC(C)CC4)CC3)ncn2)c1
→ -0.76	i
CC(=O)N1CCc2cc(N3CC(C(=O)NCc4cccs4)CC3=O)ccc21 (stereo unspecified)
→ -0.55	i
Cc1c(Cl)cccc1NC1c2ccccc2C(=O)N1Cc1ccc2c(c1)OCO2 (stereo unspecified)
→ -0.3	i
COc1ccc(-n2cnc3c(C)nc(Nc4ccc(C)cc4)nc32)cc1
→ 1.1	i
CN1C(=O)CCC1c1cccnc1 (stereo unspecified)
→ 0.38	i

Next entries:
Below each compound – Anaer choline gr early	Anaer choline gr
CCn1cnc(S(=O)(=O)N2CCCC(C(=O)NC3CC3)C2)c1 (stereo unspecified)
→ -1.08	i
O=C(NCCC1=CCCCC1)C1CCCN(c2nc3ccc(Br)cc3[nH]2)C1 (stereo unspecified)
→ 0.13	i
Cn1nc(C(=O)N2CCCC2)c2c1CCN(C(=O)CCC(=O)NCc1cccnc1)C2
→ -0.76	i
C=CCSc1nc2c(c(=O)[nH]1)C(c1ccc(F)cc1F)CC(=O)N2 (stereo unspecified)
→ 0.83	i
O=C(NCC1CCCO1)c1cc(-c2ccncc2)n[nH]1 (stereo unspecified)
→ -0.59	i
O=C(NCCN1CCCCC1)C1CCCN(c2ncc(-c3ccc(F)cc3)cn2)C1 (stereo unspecified)
→ 0.44	i
CCCc1noc(-c2cc(S(=O)(=O)NCC)ccc2OC)n1
→ -1.83	i
Cc1cc(C)c2c(-n3cccc3)nn(CC(=O)Nc3ccc(Cl)cc3)c2n1
→ 0.98	i
COc1ccccc1N1CCN(c2cnn(-c3ccc(C(=O)O)cc3)c(=O)c2Cl)CC1
→ 0.71	i
Cc1cc(-c2nn3cnnc3s2)no1
→ -0.57	i
CCn1c(C)cc(C(=O)CSc2nnc(CN(c3ccc(F)cc3)S(C)(=O)=O)n2C)c1C
→ 0.73	i
CN(C)CCC=C1c2ccccc2Sc2ccc(Cl)cc21
→ -2.53*	+
O=C(Nc1ccc(F)cc1)C1Nc2cc(F)ccc2S(=O)(=O)N1 (stereo unspecified)
→ -0.66	i
O=S(=O)(c1cc(-c2noc(C3CCC3)n2)cs1)N1CCOCC1
→ -0.21	i
CN1C(=O)c2ccc(NC(=O)CCc3nc(CSc4nc5ccccc5s4)no3)cc2C1=O
→ 0.2	i

Other records follow.
Below each compound – Anaer choline gr early	Anaer choline gr
CC1(C)S[C@@H]2[C@H](NC(=O)[C@H](N)c3ccccc3)C(=O)N2[C@H]1C(=O)O
→ 0.87&0.06	i
O=C(Nc1ccc(-c2cc3ccccc3[nH]2)cc1)c1cc2ccccc2[nH]1
→ 0.24	i
COc1ccc(C2CC(=O)C3=C(C2)Nc2onc(C)c2C3C(C)C)cc1 (stereo unspecified)
→ 0.47	i
CCc1c(C)nc2ncnn2c1Nc1ccc2c(c1)OCCO2
→ -0.6	i
Cc1cc(C)c2c(n1)SCCN2C(=O)Nc1ccc(Br)c(C)c1
→ -0.32	i
CCCc1cc(C(=O)N2CCCC2c2cc(CC)no2)no1 (stereo unspecified)
→ -0.2	i
Cc1nc2nc(-c3ccccc3)nn2c(C)c1CC(=O)N(C)Cc1ccccc1
→ -0.32	i
COC(=O)c1sccc1NC(=O)Cn1c(C)cc(C)c(-c2nc(-c3ccc(C)cc3)no2)c1=O
→ 1.63	i
CC1CCCN(S(=O)(=O)c2cc(-c3nnc(C4CCCC4)o3)co2)C1 (stereo unspecified)
→ 0.09	i
CCc1ccc(N2C(=O)N(Cc3ccc(F)cc3Cl)C3CS(=O)(=O)CC32)cc1 (stereo unspecified)
→ 0.1	i
CC(C)NC(=O)N1CCCN(Cc2cccs2)CC1
→ 0.41	i
CC1CCN(S(=O)(=O)c2ccc(-c3noc(-c4ccnn4C)n3)cc2)CC1
→ -0.02	i
CCN(CC)CCCCNc1ncc2cc(-c3cc(OC)cc(OC)c3)c(NC(=O)NC(C)(C)C)nc2n1
→ -0.35	i
CC(C)(C)NC(=O)NC1CCN(C(=O)C2CCC2)C1 (stereo unspecified)
→ 1.16	i
Fc1ccccc1-c1ccc(SCc2nc(-c3ccccc3Cl)no2)nn1
→ 0.19	i

Carrying on.
Below each compound – Anaer choline gr early	Anaer choline gr
O=C(c1cc(NS(=O)(=O)c2ccc(Cl)cc2)ccc1N1CCNCC1)N1CCOCC1
→ -1.54	i
Cc1cc(C)c2c(-n3cccc3)nn(Cc3ccc(C(=O)N4CCCCC4)cc3)c2n1
→ -0.67	i
Cc1ccc(NS(=O)(=O)c2cn(C)cn2)cc1
→ -0.18	i
O=C1Nc2ccccc2Oc2cc(Cl)c(S(=O)(=O)N3CCc4ccccc4C3)cc21
→ 0.7	i
CN(CC(=O)N1CCOCC1)C(=O)c1ccc(N2CCNCC2)c(NS(C)(=O)=O)c1
→ -0.19	i
O=S1(=O)C[C@H](NCc2ccc3c(c2)OCO3)[C@@H](S(=O)(=O)c2cccs2)C1
→ -0.55	i
Cc1noc(C2CCN(CC(O)c3ccc4c(c3)OCO4)CC2)n1 (stereo unspecified)
→ 0.91	i
Brc1ccc(OCc2nnc3sc(-c4ccccc4)nn23)cc1
→ 0.54	i
CCCCOC(=O)Cn1c(=O)c2c(nc3n2CCCCN3c2ccc(OCC)cc2)n(C)c1=O
→ -1.71	i
O=C1COc2ccc(NC(=O)c3ccccc3)cc2N1
→ 0.55	i
CCN(c1cccc(C)c1)S(=O)(=O)c1cc(-c2nc(C)cs2)sc1C
→ 0.18	i
CCCNS(=O)(=O)c1cc(-c2nc(C(C)C)cs2)sc1C
→ -0.77	i
c1cc2nncn2nc1NC1CCCCC1
→ -2.1	i
CC(C)n1cnc2nc(COc3ccc(NC(=O)COc4ccc(Cl)cc4)cc3)cc(=O)n21
→ 0.97	i
CCC(=O)OCC(=O)[C@@]1(OC(=O)CC)[C@@H](C)C[C@H]2[C@@H]3CCC4=CC(=O)C=C[C@]4(C)[C@@]3(Cl)[C@@H](O)C[C@@]21C
→ 0.51	i
Cc1cccn2c(=O)c(-c3nnn[nH]3)cnc12
→ 0.27	i
O=C(CCc1nc(CSc2n[nH]c(-c3ccccc3)n2)no1)Nc1nccs1
→ 0.5	i
